Compound activity (PubChem)
HNF4A DNA FP – change in binding of human HNF4A to DNA, primary screen, biochemical, fluorescence polarization, FITC-DNA; 1 h; hit rate 0.3% among 360,000; activity change, % at 10 µM; Hepatocyte nuclear factor 4-alpha (Homo sapiens), P41235; in the data active = activity change above about 30%, passing the limit was not always enough;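 also: controls were the assay level and a saturating level of protein; the project sought stronger binding though the title names inhibitors; some compounds called inactive have numbers as strong as hits; positive values seem to mean higher polarization but the record does not say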
FGF22 binding – binders of human FGF22 protein, primary screen, FGF22 synaptogenesis inhibitor project, biophysical, thermal shift, single point | Fibroblast growth factor 22 (Homo sapiens), Q9HCT0 | recombinant FGF22 thermal shift, SYPRO orange fluorescence; percent of sucrose octasulfate shift, DMSO zero | calls only at 9.99 µM | hit rate 1.5% among 340,000;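 active = melting point raised past a set limit in the mean and every replicate; inconclusive = no clear call; three in four hits are not shown here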
Target sequence (Q9HCT0 whole entry, looked up): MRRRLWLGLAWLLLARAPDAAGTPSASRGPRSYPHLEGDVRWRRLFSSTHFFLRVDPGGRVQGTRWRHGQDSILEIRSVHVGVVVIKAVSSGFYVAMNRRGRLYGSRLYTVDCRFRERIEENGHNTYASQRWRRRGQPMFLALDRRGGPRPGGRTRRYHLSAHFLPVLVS
Ecoli growth – E. coli growth inhibition, primary screen, OD600; OD600 absorbance (no concentration beside the values); AID 1053175, 2014; Escherichia coli growth, 23 h; active compounds read low; hit rate 0.21% among 330,000;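 active = OD600 absorbance below the run mean of sample wells minus 3.6 SD, in any replicate, cut at about 0.56 in these data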;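 also: stock transfer was 300 nL into about 60 µL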
MLL AF4-AF9 inh – inhibitors of AF4 peptide binding to AF9, primary screen, biochemical, AlphaScreen, biotin-AF4 peptide, FLAG-AF9, single point; inhibition, % at 10 µM; hit rate 0.47% among 350,000; AID 651704, 2012; Protein AF-9 (Homo sapiens), P42568;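 active = every replicate reaching a set inhibition limit, whatever the replicate mean, cut at about 25% in these data; inconclusive = mean inhibition reaches that limit but some replicates miss it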;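 also: 0% = plate neutral control median and 100% = total signal loss; the record names both 10 and 1 µM as test concentration; the first replicate is given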
Target sequence (P42568 whole entry, looked up): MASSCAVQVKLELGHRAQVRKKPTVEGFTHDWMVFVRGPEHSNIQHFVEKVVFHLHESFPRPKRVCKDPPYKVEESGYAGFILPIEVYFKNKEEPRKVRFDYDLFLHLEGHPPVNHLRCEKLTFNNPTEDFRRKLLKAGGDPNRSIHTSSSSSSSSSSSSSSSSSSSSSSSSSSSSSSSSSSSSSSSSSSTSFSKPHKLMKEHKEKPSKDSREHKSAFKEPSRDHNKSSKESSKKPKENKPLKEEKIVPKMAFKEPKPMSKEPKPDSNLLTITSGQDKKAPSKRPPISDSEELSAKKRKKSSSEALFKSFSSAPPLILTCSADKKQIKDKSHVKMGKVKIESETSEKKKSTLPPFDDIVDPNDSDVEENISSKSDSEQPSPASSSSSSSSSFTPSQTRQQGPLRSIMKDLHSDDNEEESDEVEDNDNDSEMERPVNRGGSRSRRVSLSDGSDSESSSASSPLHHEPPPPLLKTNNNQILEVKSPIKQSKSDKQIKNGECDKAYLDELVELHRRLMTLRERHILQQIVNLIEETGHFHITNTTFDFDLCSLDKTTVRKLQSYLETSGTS
ALR H2O2 inh – inhibitors of human ALR sulfhydryl oxidase, primary screen, biochemical, H2O2 detection, HRP-luminol luminescence, single point | FAD-linked sulfhydryl oxidase ALR (Homo sapiens), P55789 | purified ALR, DTT oxidation | inhibition, % (no concentration beside the values) | hit rate 3.8% among 290,000;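 active = mean and each replicate at 75% or more; inconclusive = only one of the two met; inactive = neither met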;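 also: stock transfer was 7.5 nL into about 7.5 µL; 0% = neutral wells and 100% = wells with inactivated enzyme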
Target sequence (P55789 whole entry, looked up): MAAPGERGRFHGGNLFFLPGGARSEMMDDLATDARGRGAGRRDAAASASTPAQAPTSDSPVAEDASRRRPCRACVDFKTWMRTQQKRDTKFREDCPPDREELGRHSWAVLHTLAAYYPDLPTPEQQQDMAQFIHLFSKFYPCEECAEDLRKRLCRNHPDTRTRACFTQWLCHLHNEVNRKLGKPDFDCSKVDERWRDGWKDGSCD
Vif TR-FRET – inhibitors of Vif binding to APOBEC3G peptide, primary screen, biochemical, TR-FRET, GST-Vif 1-94, biotin-A3G peptide, dose response retest (AID 1117319); TR-FRET GST-Vif / biotin-A3G peptide binding; higher % means a stronger effect; test concentration not given here; strong numbers were not always called active; inhibition, %, or IC50 in µM where a hit was titrated; hit rate 0.57% among 260,000;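 active = above the screen mean plus three standard deviations and confirmed in dose response; inconclusive = results disagree or hit not tested in dose response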;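 also: Vif residues 1-94 fused to GST binding biotinylated APOBEC3G peptide 110-148; 0% = full assay without inhibitor and 100% = GST in place of GST-Vif; retest series ran down from 100 µM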
rRNA inh HTS – reduced GFP signal of wild-type E. coli, primary screen, bacterial rRNA inhibitor project, GFP/RFP fluorescence, OD600, single point. E. coli WT GFP vs humanized-ribosome RFP mutants, 24 h; active compounds read low; DMSO median 0, no signal -100. GFP signal change (wild-type ribosome), % (test concentration not listed). hit rate 1.6% among 350,000;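 active = significant combined selectivity score with lowered wild-type GFP, culture density cut under 30%, mutant RFP and density less affected; inactive = any of these conditions unmet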; also: one replicate is shown; some compounds called inactive have numbers as strong as hits
rRNA inh HTS OD600 – also measured in rRNA inh HTS; calls as there; OD600 change, %; measured here: OD600 growth;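 optical density of the mix in the first replicate; 0 = DMSO median and -100 = no signal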
rRNA inh HTS RFP – recorded beside rRNA inh HTS, whose call it bears; RFP signal change, %; measured here: RFP humanized mutant strains;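 first replicate; 0 = DMSO median and -100 = no signal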
Starred values were filed as active, the others as inactive; i = inactive; ? = inconclusive; nt = not tested or not shown. Not all compounds are listed; rates above refer to the full screens.

Second line of a record: HNF4A DNA FP, FGF22 binding, Ecoli growth, MLL AF4-AF9 inh, ALR H2O2 inh, Vif TR-FRET, rRNA inh HTS, rRNA inh HTS OD600, rRNA inh HTS RFP
- CCOC(=O)C1CCN(S(=O)(=O)c2ccc3[nH]c(=O)c(=O)[nH]c3c2)CC1
→ 0.9, i, 0.68, -1.5, -4, -4%, 15, 2, -0.2
- Cc1ccc2oc(=O)c(/C=C(\O)c3sc(C)nc3C)nc2c1
→ 6.3, i, 0.72, 3.6, nt, nt, 0, 22, 16
- Cc1cccc(OCC(=O)N(Cc2cccs2)C2CCS(=O)(=O)C2)c1C (centres undefined)
→ -0.4, nt, 0.71, nt, nt, 25%, nt, nt, nt
- CC(C)(C)c1ccc(OC(=O)Cn2c(C(F)(F)F)nc3ccccc32)cc1
→ -0.3, nt, 0.78, nt, -1, -4%, nt, nt, nt
- C[C@H](CO)N1C[C@H](C)[C@@H](CN(C)Cc2ccc(Oc3ccccc3)cc2)Oc2ccc(NC(=O)NC3CCCCC3)cc2CC1=O
→ nt, i, nt, 1.1, nt, nt, 1, -6, 6.2
- Cn1c(=O)c2c(nc(NC3CCCCC3)n2Cc2ccccc2)n(C)c1=O
→ 3.7, i, 0.73, 0.1, 70, -3%, -2, 3, 2.3
- Nc1nn(-c2ccccc2)c(N)c1N=Nc1ccccc1F
→ -0.3, i, 0.68, ?, 1, -8%, -37*, -22*, -3.3*
- CSc1ccc(CN(C)CC(=O)NCCc2ccccc2)cc1
→ -3.6, i, 0.69, 0.2, 3, -4%, -12, -40, -15
- O=C(NC(=S)NC1CC1)c1cccnc1
→ 1.6, nt, 0.71, nt, 44, 1%, nt, nt, nt
- COCC(=O)Nc1ccc2c(c1)[C@H]1C[C@H](CC(=O)NCc3ccncc3)O[C@@H](CO)[C@H]1O2
→ nt, i, nt, -3.0, nt, nt, 2, 10, -4.1
- O=C(NCC[C@@H]1CC[C@H](NS(=O)(=O)Cc2ccccc2)[C@@H](CO)O1)C1CCCCC1
→ nt, i, nt, -1.7, nt, nt, 0, 6, -2.8
- COC(=O)[C@H]1[C@H](CO)[C@H]2Cn3c(ccc(-c4cccc(C(=O)N(C)C)c4)c3=O)[C@H]2N1CC1CC1
→ nt, i, nt, -1.3, nt, nt, 2, 2, -0.6
- CN(Cc1ccccc1)C(=O)CCC1CCN(S(C)(=O)=O)CC1
→ 0.7, i, 0.69, 1.5, nt, nt, 4, 5, -3.0
- CCOc1ccccc1C(=O)NCC(=O)NNC(=O)CN(C)S(=O)(=O)c1ccc(Cl)cc1
→ 1.6, i, 0.63, -2.2, -4, 5%, 13, 14, 2.2
- CC1(C)CC2CC(C)(CN2C(=O)c2ccccc2)C1 (centres undefined)
→ 1.8, i, 0.71, 1.3, nt, 1%, -2, 1, -2.4
- O=C(CSC1=NCCS1)Nc1cccc(F)c1
→ 3.1, i, 0.67, -3.5, 99*, -2%, 3, 0, 2.0
- CCc1ccc(C(=O)Nc2ccc(OC)c(S(=O)(=O)N3CCCCC3)c2)cc1
→ 3.4, i, 0.68, -1.9, 0, 10%, nt, nt, nt
- COc1ccc(COc2ccc(C3C(S(=O)(=O)c4ccccc4)CON3C)cc2OC)cc1 (centres undefined)
→ 0.6, i, 0.66, -3.0, 1, -8%, 12, 9, -3.0
- COc1ccc(C)cc1NC(=O)CN1CCCC1c1ccc2c(c1)OCCCO2 (centres undefined)
→ 1.0, i, 0.69, 3.6, nt, 18%, -30, -61, -4.7
- O=C(NCc1ccncn1)[C@H]1[C@H](CO)[C@H]2Cn3c(ccc(-c4ccccc4)c3=O)[C@H]2N1CC1CC1
→ nt, i, nt, 6.6, nt, nt, 1, 5, 4.3
- Cc1nc(N)nc(N)c1CCCc1ccc(Cl)c(Cl)c1
→ 0.2, i, 0.41*, 9.5, -5, nt, -33, -50, 0.3
- CC(C)CSc1nnc2c3ccccc3n(C)c2n1
→ 2.4, i, 0.67, 2.5, nt, nt, -12, -7, 1.6
- COc1ccc(NC(=O)Nc2ccc3c(c2)C(=O)N([C@@H](C)CO)C[C@@H](C)[C@@H](CN(C)Cc2ccc(C(=O)Nc4ccccc4N)cc2)O3)cc1
→ nt, i, nt, 2.1, nt, nt, -5, -12, 0.0
- O=C(COc1coc(CN2CCCc3ccccc32)cc1=O)Nc1ccc([N+](=O)[O-])cc1
→ 0.4, i, 0.68, -0.4, nt, 8%, 6, 12, 1.5
- O=[N+]([O-])c1ccc(N2CCOCC2)cc1NCc1ccccc1
→ -0.3, nt, 0.79, nt, -11, 28%, nt, nt, nt
- Cc1onc(-c2ccccc2)c1C(=O)N1CCN(c2ncccn2)CC1
→ 2.9, i, 0.64, -0.1, 0, nt, 12, 5, 4.2
- O=C1OC2CCC1(c1ccccc1)C2 (centres undefined)
→ 0.0, nt, 0.7, nt, -19, 4%, nt, nt, nt
- C[C@H](CO)N1C[C@H](C)[C@H](CN(C)C(=O)C2CC2)Oc2cc(C#Cc3cccnc3)ccc2S1(=O)=O
→ nt, i, nt, 0.3, nt, nt, -3, 4, 2.1
- O=C(O)[C@H]1CCCC[C@H]1C(=O)Nc1cc([N+](=O)[O-])ccc1F
→ 2.3, i, 0.68, -2.0, 11, 3%, 21, 18, -12
- Cn1nc(C(=O)OCC(=O)N2CCc3ccccc32)c2ccccc2c1=O
→ -1.4, nt, 0.67, nt, -12, 63%, nt, nt, nt

(next part)
Structure,HNF4A DNA FP,FGF22 binding,Ecoli growth,MLL AF4-AF9 inh,ALR H2O2 inh,Vif TR-FRET,rRNA inh HTS,rRNA inh HTS OD600,rRNA inh HTS RFP
CN(C)c1ccc2c(c1)[C@@H]1C[C@H](CC(=O)NCC3CC3)O[C@H](CO)[C@@H]1O2,nt,i,nt,-17,nt,nt,2,8,1.9
Cc1ccc(NC(=O)Nc2c(C)n(C)n(-c3ccccc3)c2=O)cc1C,2.3,i,0.7,-18,nt,1%,10,12,0.2
O=C(NC1CCCCC1)C1c2ccccc2OCC(=O)N1CC(F)(F)F (centres undefined),2.5,i,nt,0.6,nt,nt,1,3,-0.5
O=C(CCN1C(=O)/C(=C\c2ccccc2)SC1=S)Nc1ccc(C(=O)O)cc1,4.6,i,0.69,1.9,-5,nt,-16,-4,-2.4
Cc1cnc(NC(=O)CSc2nnc(C)n2N)s1,0.6,i,0.62,2.2,-10,0%,10,9,3.7
O=C(CSc1nnc2ccccn12)NCCN1C(=O)CSC1=O,-3.1,nt,0.72,nt,1,-7%,nt,nt,nt
COCC#Cc1ccc2c(c1)O[C@@H](CN(C)C(=O)C1CCCCC1)[C@H](C)CN([C@@H](C)CO)S2(=O)=O,nt,i,nt,-1.2,nt,nt,-5,-7,-2.5
O=C(Nc1cccc(C(=O)N2CCOCC2)c1)c1ccccc1Cl,1.4,i,0.72,-1.6,-4,nt,5,9,0.0
COc1cccc(NC(=O)N[C@H]2CC[C@H](CC(=O)N3CCCCC3)O[C@@H]2CO)c1,nt,i,nt,-0.2,nt,nt,4,-3,-0.4
C[C@@H]1CCCCO[C@@H](CN(C)C(=O)Nc2ccc(F)cc2)[C@H](C)CN([C@H](C)CO)C(=O)c2cc(NC(=O)c3ccncc3)ccc2O1,nt,i,nt,0.3,nt,nt,-1,-4,-3.4
COc1cccc2cc(C(C)N(CCCN3CCOCC3)C(=S)Nc3cc(C)cc(C)c3)oc12 (centres undefined),-1.4,i,0.69,-2.5,-2,?,4,4,-0.4
O=C(COC(=O)c1ccc(Br)o1)Nc1ccc(N2CCOCC2)cc1,-0.4,i,0.68,-6.1,nt,nt,2,7,-3.2
Cc1ccc(C(=O)N2CCN(c3ccc(N4CCOCC4)nn3)CC2)cc1C,2.5,i,0.64,-18,4,8%,1,0,-2.3
O=C(NCc1ccccc1)Oc1cccc(Cl)c1,1.2,nt,0.66,nt,1,-2%,nt,nt,nt
CCOC(=O)C1CCN(S(=O)(=O)c2cccc(C(=O)Nc3ccccc3)c2)CC1,1.4,i,0.62,0.3,-10,-1%,1,-1,2.4
COc1cccc2cc(-c3n[nH]c(=S)n3C)oc12,-2.1,nt,0.7,-5.3,25,3%,-8,-3,0.7
C=CCn1c(NCc2ccc(OC)cc2)nc2ccccc21,-1.9,i,0.71,-0.8,39,nt,6,8,4.8
N#Cc1ccc(C(=O)Nc2cc(S(=O)(=O)N3CCOCC3)ccc2N2CCOCC2)cc1,1.4,i,nt,-7.3,nt,nt,nt,nt,nt
NC(=NC(=O)c1ccc(OCC(F)(F)F)nc1)c1ccccc1,0.6,i,0.69,-1.3,-9,nt,-2,5,-3.4
CCC(=O)c1cc2c(cc1NC(=O)c1ccccc1)OCCO2,1.6,nt,0.67,nt,-4,6%,nt,nt,nt
CCOC(=O)C1CCCN(C(=O)c2cncc(Br)c2)CC1 (centres undefined),2.9,i,nt,1.7,nt,nt,nt,nt,nt
CSCCC1NC2(C(=O)Nc3c(C)cc(Cl)cc32)[C@@H]2C(=O)N(C3CCCC3)C(=O)[C@H]12 (some centres undefined),0.2,nt,0.65,nt,-7,9%,nt,nt,nt
Cc1ccc(Cn2nnnc2CN2CCC(O)(c3ccc(F)cc3)CC2)cc1,-0.6,i,0.69,0.8,-1,0%,-27*,-22*,5.6*
Cc1nc2sc3c(c2c(=O)[nH]1)CCCCC3,2.6,i,0.63,8.7,-4,?,11,8,-0.7
COc1ccccc1-c1nnc(SCC(=O)OC(C)C)o1,-2.8,nt,0.63,nt,-17,1%,nt,nt,nt
CC(C)[C@H](NC(=O)c1ccccc1)C(=O)OCC(=O)N1CC2(C)CC1CC(C)(C)C2 (some centres undefined),-1.1,i,0.71,-4.8,-32,7%,12,6,0.4

4 compounds already listed, arranged by the number in ALR H2O2 inh, ascending:
Structure,ALR H2O2 inh
CC(C)[C@H](NC(=O)c1ccccc1)C(=O)OCC(=O)N1CC2(C)CC1CC(C)(C)C2 (some centres undefined),-32
COc1ccccc1-c1nnc(SCC(=O)OC(C)C)o1,-17
Cc1nc2sc3c(c2c(=O)[nH]1)CCCCC3,-4
Cc1ccc(Cn2nnnc2CN2CCC(O)(c3ccc(F)cc3)CC2)cc1,-1
